# From PubChem
# ALR inh: inhibitors of human sulfhydryl oxidase ALR; AID 485317; actives 3.8% (n = 290,000); inhibition, % (test concentration not listed); P55789; purified ALR, DTT oxidation, H2O2 HRP-luminol luminescence;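 active means mean and each replicate at 75% or more; inconclusive means only one of the two met; inactive means neither met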;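 further: stock transfer was 7.5 nL into about 7.5 µL; 0% = neutral wells and 100% = wells with inactivated enzyme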
# Target sequence (P55789 whole entry, looked up): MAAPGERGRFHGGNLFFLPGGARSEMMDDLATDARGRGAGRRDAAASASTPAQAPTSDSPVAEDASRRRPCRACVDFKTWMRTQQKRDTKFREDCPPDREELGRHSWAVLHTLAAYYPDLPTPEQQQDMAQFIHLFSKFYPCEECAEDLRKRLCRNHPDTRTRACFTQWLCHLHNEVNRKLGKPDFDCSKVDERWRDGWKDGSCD
# Vif A3G: HIV-1 Vif–A3G interaction blockers – biochemical, TR-FRET, GST-Vif 1-94, biotin-A3G peptide, dose response retest, primary screen (AID 1117319). inhibition, %; hits with a dose series show IC50 in µM. actives 0.57% (n = 260,000). TR-FRET GST-Vif / biotin-A3G peptide binding; higher % means a stronger effect; test concentration not given here; strong numbers were not always called active;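 active means above the screen mean plus three standard deviations and confirmed in dose response; inconclusive means results disagree or hit not tested in dose response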;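 further: Vif residues 1-94 fused to GST binding biotinylated APOBEC3G peptide 110-148; 0% = full assay without inhibitor and 100% = GST in place of GST-Vif; retest series ran down from 100 µM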
# rRNA inh HTS: inhibits bacterial ribosomal RNA function over humanized ribosomes; GFP signal change (wild-type ribosome), % (test concentration not listed); AID 720706; E. coli WT GFP vs humanized-ribosome RFP mutants, fluorescence, 24 h; hits give low values; DMSO median 0, no signal -100; actives 1.6% (n = 350,000);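 active means significant combined selectivity score with lowered wild-type GFP, culture density cut under 30%, mutant RFP and density less affected; inactive means any of these conditions unmet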; further: one replicate is shown; some compounds called inactive have numbers as strong as hits
# E coli growth: E. coli growth inhibition; Escherichia coli growth, OD600, 23 h; hits give low values; OD600 absorbance (test concentration not listed); actives 0.21% (n = 330,000);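 active means OD600 absorbance below the run mean of sample wells minus 3.6 SD, in any replicate, cut at about 0.56 in these data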;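 further: stock transfer was 300 nL into about 60 µL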
# MLL AF4-AF9 inh: MLL-AF4/AF9 protein interaction inhibition; P42568; AID 651704; actives 0.47% (n = 350,000); inhibition, % at 10 µM; AlphaScreen, biotin-AF4 peptide binding to FLAG-AF9;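 active means every replicate reaching a set inhibition limit, whatever the replicate mean, cut at about 25% in these data; inconclusive means mean inhibition reaches that limit but some replicates miss it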;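 further: 0% = plate neutral control median and 100% = total signal loss; the record names both 10 and 1 µM as test concentration; the first replicate is given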
# Target sequence (P42568 whole entry, looked up): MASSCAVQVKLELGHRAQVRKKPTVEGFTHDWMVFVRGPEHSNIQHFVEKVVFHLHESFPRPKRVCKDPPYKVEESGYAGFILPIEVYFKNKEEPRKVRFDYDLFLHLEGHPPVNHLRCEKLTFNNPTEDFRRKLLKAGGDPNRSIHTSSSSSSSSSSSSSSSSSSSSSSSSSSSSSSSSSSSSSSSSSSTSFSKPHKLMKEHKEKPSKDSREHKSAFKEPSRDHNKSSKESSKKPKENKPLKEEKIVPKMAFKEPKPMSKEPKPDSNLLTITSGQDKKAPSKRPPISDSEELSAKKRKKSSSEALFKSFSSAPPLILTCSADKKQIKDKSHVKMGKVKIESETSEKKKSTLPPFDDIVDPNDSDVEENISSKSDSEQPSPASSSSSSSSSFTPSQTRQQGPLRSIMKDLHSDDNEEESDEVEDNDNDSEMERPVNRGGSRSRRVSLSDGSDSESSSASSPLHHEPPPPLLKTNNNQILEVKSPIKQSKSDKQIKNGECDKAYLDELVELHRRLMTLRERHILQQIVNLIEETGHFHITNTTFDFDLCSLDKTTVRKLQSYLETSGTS
# FGF22 binding: FGF22 (human) thermal shift binding; recombinant FGF22 thermal shift, SYPRO orange fluorescence; percent of sucrose octasulfate shift, DMSO zero; calls only at 9.99 µM; actives 1.5% (n = 340,000);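 active means melting point raised past a set limit in the mean and every replicate; inconclusive means no clear call; three in four hits are not shown here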
# Target sequence (Q9HCT0 whole entry, looked up): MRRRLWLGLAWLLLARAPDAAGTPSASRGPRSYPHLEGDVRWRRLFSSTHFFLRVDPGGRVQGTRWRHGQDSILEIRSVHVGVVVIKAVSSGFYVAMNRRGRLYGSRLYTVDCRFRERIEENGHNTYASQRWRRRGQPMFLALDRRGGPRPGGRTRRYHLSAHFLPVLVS
# HNF4A DNA FP: change in binding of human HNF4 alpha to DNA. P41235. HNF4a-FITC DNA binding, fluorescence polarization, 1 h. activity change, % at 10 µM. actives 0.3% (n = 360,000); in the data active means activity change above about 30%, passing the limit was not always enough;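 further: controls were the assay level and a saturating level of protein; the project sought stronger binding though the title names inhibitors; some compounds called inactive have numbers as strong as hits; positive values seem to mean higher polarization but the record does not say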
# rRNA inh HTS OD600: second read-out of rRNA inh HTS, no call of its own (marks repeat the call); OD600 change, %; measured here: OD600 growth;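 optical density of the mix in the first replicate; 0 = DMSO median and -100 = no signal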
# rRNA inh HTS RFP: also measured in rRNA inh HTS; calls as there; RFP signal change, %; measured here: RFP humanized mutant strains;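 first replicate; 0 = DMSO median and -100 = no signal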
# * marks the source's active call; other numbers are inactive results; i = inactive; ? = inconclusive; . = not tested or not shown; & = joins results of further samples.
SMILES,ALR inh,Vif A3G,rRNA inh HTS,rRNA inh HTS OD600,rRNA inh HTS RFP,E coli growth,MLL AF4-AF9 inh,FGF22 binding,HNF4A DNA FP
O=[N+]([O-])c1ccc(-[n+]2c(-c3ccccc3)cc(-c3ccccc3)cc2-c2ccccc2)cc1,-8,9%,-56,-72,-24,0.68,7.8,i,1.1
O=C(NN=Cc1ccc(N(CCCl)CCCl)cc1)C(=O)c1c[nH]c2ccccc12,.,-2%,4,14,30,0.69,-0.5,i,7.9
CC=Cc1ccc2n(c1=O)C[C@@H]1[C@@H](CO)[C@H](C(=O)OC)[C@H]2N1S(=O)(=O)c1ccccc1C (mixture of isomers),.,.,-4,4,0.4,.,2.1,i,.
Cc1ccc(C2=NN(CCC(=O)N3CCC4(CC3)OCCO4)C(=O)CC2)cc1,.,-11%,7,-3,-5.1,0.63,-1.0,.,-3.2
CN(C)C(=O)Oc1ccc2nnc3ccnn3c2c1,-12,0%,7,8,1.9,0.67,-1.5,i,-5.7
O=C1/C(=C/c2ccncc2)N2CCC1CC2,-4,-2%,7,6,-0.3,0.68,5.7,i,-0.1
Cc1cc(N2C(=O)C3CCCN3C2c2ccc(Cl)c(Cl)c2)no1 (stereo unspecified),3,-5%,.,.,.,0.72,.,.,-2.5
O=C1C=C2C=C[C@@H]3CC2(O1)[C@H]1CCCCN31,-2,.,.,.,.,.,-3.1,i,1.2
Cc1cc(/C=C2\C(=O)NC(=O)N(c3cccc(F)c3)C2=O)c(C)n1-c1cc(C(=O)O)cc(C(=O)O)c1,?,10µM*,20,27,9.6,0.7,-3.4,i,-22
COC(=O)C1=C(c2ccccc2)C[C@@H]2CC[C@H]1N2C(=O)NCCCOC(C)C,0,.,1,0,15,.,-1.6,i,0.3
Cc1cc(C)c(-n2c(O)c(/C=N/N3CCCCC3c3cccnc3)c(=O)[nH]c2=O)c(C)c1 (stereo unspecified),4,.,0,9,0.0,0.72,-1.9,.,18
O=[P+](Cc1ccccc1)Cc1ccccc1,2,-5%,.,.,.,.,.,.,-1.7
O=C(O)[C@@H]1[C@@H](CO)[C@@H]2Cn3c(ccc(-c4ccccc4)c3=O)[C@H]1N2CC1CCCCC1,.,.,6,8,3.7,.,3.8,i,.
CC(=O)Nc1ccc(OC(=O)N(C)c2ccc(C)cc2)cc1,-1,.,5,-4,0.4,0.7,1.6,i,-1.4
Cc1nc2nc(C)c(CCC(=O)N3CCC4(CC3)OCCO4)c(C)n2n1,.,2%,.,.,.,0.69,.,.,3.1
CCCCCC(=O)N[C@@H](c1ccccc1)[C@@H](O)C(=O)O[C@H]1C[C@@]2(O)[C@@H](OC(=O)c3ccccc3)C3[C@](C)(C(=O)[C@H](O)C(=C1C)C2(C)C)[C@@H](OC1OCC(O)C(O)C1O)C[C@H]1OC[C@@]31OC(C)=O (stereo partly specified),.,.,.,.,.,0.66,1.7,i,3.0
CCC1(CC)C(=N)N(C)C(=O)NC1=O,0,-7%,4,7,3.0,0.64,-2.7,i,-0.7
CC(NCc1ccc(Cl)c(Cl)c1)C(O)c1ccccc1 (stereo unspecified),-5,-5%,-35,-35,-6.0,0.62,2.5,i,0.1
CCOc1ccc(-c2cc(C)[n+](CCc3ccc(OC)c(OC)c3)c(-c3ccc(OCC)cc3)c2)cc1,-10,6%,-55,-78,-19,0.54,11,i,2.3
C[C@]12CC[C@H]3[C@@H](CCC4=CC(=O)CC[C@@]43C)[C@@H]1CC[C@@H]2O,.,.,-17&-16,-23&-26,-1.7&-0.8,0.74&0.7,.,i,9.0&-0.7
Cc1ccc(Cn2cc(C=O)c(-c3ccc(F)cc3)n2)cc1,-4,-1%,-18,2,-1.9,0.66,-3.6,i,-5.1
CCCC(=O)c1c(O)[nH]c(=O)[nH]c1=O,-8,1%,14,3,-8.7,0.71,?,i,-3.6
COC(=O)C1=C(c2cc3ccccc3s2)C[C@@H]2CC[C@H]1N2C(=O)N1CCOCC1,-19,.,-10,-14,3.8,.,5.9,i,-1.1
Cc1cc(OC(C)C(=O)N[C@H](C(=O)O)c2ccccc2)c2c3c(c(=O)oc2c1)CCC3 (stereo partly specified),-1,.,.,.,.,0.74,4.1,i,2.1
C/C=C/c1ccc([C@@H]2[C@@H](CO)N3CCCCN(C(=O)Cc4cccnc4)C[C@@H]23)cc1,.,.,-2,4,-1.7,.,-7.2,i,.

# More structures.
SMILES,ALR inh,Vif A3G,rRNA inh HTS,rRNA inh HTS OD600,rRNA inh HTS RFP,E coli growth,MLL AF4-AF9 inh,FGF22 binding,HNF4A DNA FP
Cc1cc(OC(=O)N(C)C)nc2c1c(C)nn2C,-4,5%,12,13,0.2,0.65,0.9,i,-2.1
C[C@]12C[C@@H](O)[C@H](O)CC1=CCC1C2CC[C@]2(C)C(=O)CCC12 (stereo partly specified),-6,-9%,-30,-37,-8.5,0.67,1.7,i,3.1
COc1ccc(NC(=O)CN2CC=C(c3ccccc3)CC2)cc1S(=O)(=O)N1CCOCC1,-8,-1%,6,-14,1.0,0.69,3.3,i,2.9
CCCCc1ncc(CN2CCCC(C(=O)c3ccc(SC)cc3)C2)[nH]1 (stereo unspecified),1,8%,8,3,-0.3,0.63,3.3,i,-0.8
C=Cn1ccnc1P(=S)(c1nccn1C=C)C1CCCCC1,-15,-2%,-3,2,-6.8,0.65,5.8,i,-2.2
CN(C)CCN=Cc1c(O)n(-c2cccc3ccccc23)c(=O)[nH]c1=O,-22,-4%,9,7,2.1,0.66,-21,i,-0.8
COC(=O)C1=C(c2cccc(C#N)c2)C[C@@H]2CC[C@H]1N2C(=O)N1CCCC1,-10,.,10,5,-6.6,.,-2.5,i,0.4
O=C(Nc1ccccc1)c1c(O)[nH]c(=O)[nH]c1=O,4,.,2,9,1.1,0.7,-3.9,i,2.1
N#Cc1cccc(-c2ccc([C@@H]3[C@H]4CN(C(=O)Cc5ccncc5)CCCCN4[C@H]3CO)cc2)c1,.,.,-3,-6,4.1,.,-4.8,i,.
C[C@]12CC[C@H]3[C@@H](CCC4=CC(=O)CC[C@@]43O)[C@@H]1CCC2=O,-1,4%,10,18,-0.4,0.67,-1.8,i,1.6
Cc1ncc(C(=O)O)n1C(C)c1ccccc1 (stereo unspecified),.,.,13,13,-3.0,.,0.7,.,2.9
CCCC#Cc1ccc([C@H]2[C@@H](CO)N3CCCCN(C(=O)Cc4ccccn4)C[C@H]23)cc1,.,.,-1,7,2.0,.,7.2,i,.
CCOC(=O)c1c(/N=C/c2c(O)n(-c3ccccc3F)c(=S)[nH]c2=O)sc2c1CCCC2,.,24%,.,.,.,0.77,.,.,-5.0
O=c1[nH]c(=O)n(Cc2ccccc2)c(O)c1C=NCCCn1ccnc1,-20,?,.,.,.,0.7,.,.,20
CNCCc1c[nH]c2ccccc12,.,?,.,.,.,0.69,.,.,2.4
CC(=O)NCCc1c[nH]c2ccccc12,-2,.,6,3,3.2,0.74,0.2,i,4.1
COC(=O)C1=C(c2c(C)noc2C)C[C@@H]2CC[C@H]1N2C(=O)N1CCC(O)CC1,-16,.,-1,-4,12,.,-0.8,i,-1.5
COc1ccc(OC(=O)N(C)C[C@@H]2OCc3ccccc3-c3c(n(C)c4ccccc34)C(=O)N([C@H](C)CO)C[C@H]2C)cc1,.,.,-1,-4,2.7,.,5.5,i,.
C(=NN1CCCCCC1)c1c[nH]c2ccccc12,.,-2%,5,3,0.9,0.7,-0.3,i,4.8
OC[C@@H]1[C@H]2c3ccccc3NC[C@H]2N1Cc1cccnc1,.,.,5,0,-0.5,.,-1.8,i,.
CCOP1(=S)Oc2cc3c(cc2C(C(=O)OC)(C(F)(F)F)O1)OCO3 (stereo unspecified),-3,7%,.,.,.,0.67,.,.,-0.3
O=C(COc1ccc(Cl)cc1)N1CCN(C2CCCC2)CC1,-4,.,4,1,-0.6,0.69,-0.5,i,-1.6
NCc1cc(=O)[nH]o1,-21,.,.,.,.,0.7,-0.7,i,3.4
O=S(=O)(NC1CCCCC1)OCC(Cl)(Cl)Cl,-4,.,-15,-14,-2.3,0.66,1.9,i,-3.7
CC1(C)CC2CCC(O)C2C(CCO)N1 (stereo unspecified),.,-5%,19,18,2.6,0.67,-1.4,i,-1.4

# Carrying on:
SMILES,ALR inh,Vif A3G,rRNA inh HTS,rRNA inh HTS OD600,rRNA inh HTS RFP,E coli growth,MLL AF4-AF9 inh,FGF22 binding,HNF4A DNA FP
O=C1NC(=O)N(c2ccccc2F)C(=O)/C1=C/c1ccc(Oc2ccc([N+](=O)[O-])cn2)cc1,-5,?,13,11,1.6,0.7,-3.2,i,-2.6
CCS(=O)(=O)NCc1nnc2n1-c1ccc(Cl)cc1C(c1ccccc1)=NC2,13,11%,.,.,.,0.72,.,.,-3.0
CC(=NCCCN1CCOCC1)c1c(O)[nH]c(=O)[nH]c1=O,-4,2%,.,.,.,0.72,.,.,2.3
Cc1ccc(S(=O)(=O)NCC2CCC(C(=O)N3CCC4(CC3)OCCO4)CC2)cc1 (stereo unspecified),6,1%,.,.,.,0.74,.,.,-0.5
O=C(c1ccc2c(c1)OCO2)N1CCC2(CC1)OCCO2,-7,26%,.,.,.,0.7,.,.,0.2
Cc1[nH]c2ccccc2c1/C=N/O,96*,7%,.,.,.,.,.,.,-1.0
COc1cccc(OC)c1C(=O)Nc1nc(N)n(-c2ccccc2)n1,-2,?,.,.,.,0.66,.,.,-0.5
COC(=O)C1=C(c2ccc(OC(F)(F)F)cc2)C[C@@H]2CC[C@H]1N2C(=O)NCC1CC1,3,.,3,2,-8.6,.,-0.4,i,2.4
COC(=O)C[C@H]1CC[C@@H]2NC[C@@H](O)COC[C@H]2O1,.,.,4,10,-1.5,.,-1.6,i,.
Cc1cccc(N2C(=O)/C(=C/c3ccc(CN(CCC#N)S(C)(=O)=O)o3)C(=O)NC2=S)c1,18,23µM*,.,.,.,0.78,.,.,22
c1ccc(C2N3CCCN23)cc1 (stereo unspecified),-7,5%,.,.,.,0.73,.,.,-5.2
O=P1(NCc2ccco2)COc2ccccc2OC1,-5,10%,.,.,.,0.71,.,.,0.1
O=c1[nH]c(=S)n(Cc2ccc(F)cc2)c(O)c1/C=N/N1CCCCC1,-19,.,7,4,36,0.7,2.9,i,0.6
O=C1CSC2N1CCNC21CCCCC1 (stereo unspecified),-7,1%,.,.,.,0.73,-4.7,.,-0.3
COc1ccc(-n2c(-c3ccccc3[N+](=O)[O-])nc3ccccc3c2=O)cc1,-1,4%,-10,-3,1.0,0.71,6.1,i,4.3
CC(C)CC(NC(=O)CCCNC(=O)CCC(=O)OC1O[C@H]2OC3(C)CC[C@H]4[C@H](C)CCC(C1C)C24OO3)C(=O)O (stereo partly specified),.,-2%,-20,-58,29,.,-1.4,i,1.8
CN(C)C(=S)SSC(=S)N(C)C,.,-28%,4,5,3.9,0.49*,3.8,i,1.5

# One compound at a time (already shown).
# Cc1cccc(N2C(=O)/C(=C/c3ccc(CN(CCC#N)S(C)(=O)=O)o3)C(=O)NC2=S)c1 across the screens: ALR inh = 18; Vif A3G = 23µM*; rRNA inh HTS = .; rRNA inh HTS OD600 = .; rRNA inh HTS RFP = .; E coli growth = 0.78; MLL AF4-AF9 inh = .; FGF22 binding = .; HNF4A DNA FP = 22
# CC(C)CC(NC(=O)CCCNC(=O)CCC(=O)OC1O[C@H]2OC3(C)CC[C@H]4[C@H](C)CCC(C1C)C24OO3)C(=O)O (stereo partly specified) across the screens: ALR inh = .; Vif A3G = -2%; rRNA inh HTS = -20; rRNA inh HTS OD600 = -58; rRNA inh HTS RFP = 29; E coli growth = .; MLL AF4-AF9 inh = -1.4; FGF22 binding = i; HNF4A DNA FP = 1.8

# Only part of the results is shown. The share of hits here may be higher or lower than overall.
